Calb biofilm kill: mixture kills Candida albicans biofilm cells; 120,000 tested, 0.02% active; C. albicans biofilm persisters + clotrimazole, fluorescence viability; primary screen in compound mixtures of four per well; inhibition, % at 7.6 µM;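 active means inhibition above 30.3% in the primary screen of four-compound pools, then above 30% when the compound was retested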;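 further: compounds exposed to preformed 24 h biofilms for 48 h; the number belongs to the whole pool; some results filed as inactive read as strong as hits; inactives centre near 12; 0% = biofilm with clotrimazole alone and 100% = kill control; retested singly at about 60 µM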
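Test system: C. albicans biofilms. Buffer or medium: RPMI/MOPS medium, pH 7.0. Timing: 48 h compound exposure at 37 °C. Technique: Alamar Blue fluorescence. Evaluation: percent inhibition of biofilm viability.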
The depositor's hits bear a star. A portion of the library. The share of hits here may be higher or lower than overall.

What do the screens show for `O=C(O)c1ccc(N2C(=O)CC(SC(=NCc3ccc4c(c3)OCO4)Nc3ccc(F)cc3)C2=O)cc1` (configuration not stated)?
Calb biofilm kill: 2

What do the screens show for `CC(=O)C1=C(C)NC(=O)NC1/C=C/c1ccccc1` (configuration not stated)?
Calb biofilm kill: 15

What do the screens show for `CCNC(=O)Nc1ccc(-n2nc(C)c(C(=O)OCC)c2C)nc1`?
Calb biofilm kill: 8

Results for Cc1ccc(-c2[nH]c(-c3ccc(Cl)cc3)nc2SCC(=O)NCC2CCCO2)cc1 (configuration not stated) ?
Calb biofilm kill: 8

Results for COc1ccccc1NC(=O)CNC(=O)c1ccc([N+](=O)[O-])cc1 ?
Calb biofilm kill: 7

What do the screens show for `Cc1ccc(NS(=O)(=O)c2ccc(C)c(NC(=O)COc3ccc4ccccc4c3)c2)c(C)c1`?
Calb biofilm kill: 17

What do the screens show for `COc1cccc(CNC(=O)CCC2CCCN(C(=O)Cc3ccccc3F)C2)c1` (configuration not stated)?
Calb biofilm kill: 12

How did Cc1ccc(C(c2c(O)nc3n(c2=O)CCS3)c2c(O)nc3n(c2=O)CCS3)cc1 do in these assays?
Calb biofilm kill: 16

What do the screens show for `Cc1oc(C(C)(C)C)cc1C(=O)NCc1ccc2c(c1)OCO2`?
Calb biofilm kill: 8

What do the screens show for `CCCn1c(SCC(=O)NC(C)(C)C)nnc1-c1ccco1`?
Calb biofilm kill: 17

What do the screens show for `C=CCNC(=O)C(=O)NCCOc1ccccc1Cl`?
Calb biofilm kill: 8

How did COc1ccc(CN(C(=S)Nc2ccccc2)C2CC(=O)N(c3ccccc3)C2=O)cc1 (configuration not stated) do in these assays?
Calb biofilm kill: 3

How did O=C(NCCc1ccccc1)C1CCN(S(=O)(=O)N2CCCCCC2)CC1 do in these assays?
Calb biofilm kill: 4

What do the screens show for `OC(c1ccccc1)c1nccc2ccccc12` (configuration not stated)?
Calb biofilm kill: 7

Results for CCOC(=O)c1c(C)nc(C)c(C(=O)OCC)c1-c1ccc(Br)cc1 ?
Calb biofilm kill: 14

Results for CC(=O)N(C)c1ccc(NC(=O)Nc2ccc(C)cc2)cc1 ?
Calb biofilm kill: 15

How did Cc1c(-c2ccccc2)[n+](=O)c(-c2ccc(Cl)cc2)c(C)n1[O-] do in these assays?
Calb biofilm kill: 13

What do the screens show for `O=C(c1cc2cc(Br)cc(Br)c2oc1=O)N1CCCC1`?
Calb biofilm kill: 12

Results for NC(=O)c1c(/N=C/c2cccnc2)sc2c1CCCC2 ?
Calb biofilm kill: 5

Results for Cc1ccc(OCC(=O)OC2CCCN(C)C2)cc1 (configuration not stated) ?
Calb biofilm kill: 20

What do the screens show for `COc1ccc(-c2cn[nH]c2-c2ccc(OCc3ccc(F)cc3)cc2O)cc1OC`?
Calb biofilm kill: 35

How did O=C(Cn1c(CO)nc2ccccc21)NC1CCCCCC1 do in these assays?
Calb biofilm kill: 6

How did Cc1cc(F)ccc1S(=O)(=O)Nc1ncnc2sc3c(c12)CCC3 do in these assays?
Calb biofilm kill: 8

Results for CCN(CC)c1ccc(C=C(c2nnnn2-c2ccccc2)c2nnnn2-c2ccccc2)cc1 ?
Calb biofilm kill: -5

Results for CCCOc1ccc(N2C(=O)CC(N(Cc3ccco3)C(=O)CC)C2=O)cc1 (configuration not stated) ?
Calb biofilm kill: 13

What do the screens show for `CCCCN(C)C(=O)c1nc2ccccn2c1CN1CCN(c2cnccn2)CC1`?
Calb biofilm kill: -1

What do the screens show for `Cc1c(Cc2ccccc2)c(=O)n2c([nH]c3ccccc32)c1C#N`?
Calb biofilm kill: 24

What do the screens show for `COc1ccc(Cc2nnc(N/N=C/c3ccc(Br)cc3)[nH]c2=O)cc1OC`?
Calb biofilm kill: 11

Results for O=Cc1ccc(OC2OCCOC2Oc2ccc(C=O)cc2)cc1 (configuration not stated) ?
Calb biofilm kill: 7

Results for O=C(COC(=O)c1ccccc1Oc1ccccc1)NC1CC1 ?
Calb biofilm kill: -3

How did COc1ccccc1NS(=O)(=O)c1ccc(C)c(NC(=O)NC2CCCCC2)c1 do in these assays?
Calb biofilm kill: 7

How did CCOC(=O)CC(NC(=O)CCc1c(C)nc2ncnn2c1C)c1ccc(OC(C)C)cc1 (configuration not stated) do in these assays?
Calb biofilm kill: 9

What do the screens show for `O=C(NCc1ccccc1)C1=C[C@@H](C2CCCCC2)C[C@@H](OCc2ccc(CO)cc2)O1`?
Calb biofilm kill: 19

How did Cc1c(NS(=O)(=O)c2cccs2)cccc1-c1nc2cccnc2s1 do in these assays?
Calb biofilm kill: 22

Results for CCOC(=O)C1CSC(CC(=O)Nc2ccc(OC(F)(F)F)cc2)C(=O)N1 (configuration not stated) ?
Calb biofilm kill: 30

Results for Cc1ccc(CN2C(=O)CCC2C(=O)NCCN2CCN(c3cccc(Cl)c3)CC2)cc1 (configuration not stated) ?
Calb biofilm kill: 13

Results for COc1cccc(Cn2c(=O)sc3ccccc3c2=O)c1 ?
Calb biofilm kill: -12

How did CNC(=O)COC(=O)c1ccccc1Nc1ccccc1 do in these assays?
Calb biofilm kill: 10

How did O=C(Nc1cccnc1)C1=NN(C2CCS(=O)(=O)C2)C(=O)CC1 (configuration not stated) do in these assays?
Calb biofilm kill: -24

How did CN(CCc1ccccn1)C(=O)c1ccc(OC(F)(F)F)cc1 do in these assays?
Calb biofilm kill: 13

What do the screens show for `Cc1cc(Cl)c(S(=O)(=O)Nc2ccc(S(=O)(=O)N3CCOCC3)cc2)cc1OCC(N)=O`?
Calb biofilm kill: 12

Results for O=c1cc(CSc2nnc(C3CC3)n2Cc2ccccc2)nc2sccn12 ?
Calb biofilm kill: 13

What do the screens show for `CCOc1ccccc1CN1CCN(Cc2nc3ccccc3s2)CC1CCO` (configuration not stated)?
Calb biofilm kill: 8

What do the screens show for `O=C1NC(=O)/C(=C/c2ccc(O)cc2)S1`?
Calb biofilm kill: 8

Results for COc1ccc(-c2[nH]ncc2CN2CCC(OCc3ccccn3)CC2)c(F)c1 ?
Calb biofilm kill: 20

What do the screens show for `CCCC1=C(C(=O)OCC)C(c2ccco2)n2ncnc2N1` (configuration not stated)?
Calb biofilm kill: 15

What do the screens show for `N#C/C(=C/c1ccc(Oc2ccc([N+](=O)[O-])cn2)cc1)C(=O)N1CCOCC1`?
Calb biofilm kill: 5

What do the screens show for `O=C(CSc1ncnc2c1nnn2Cc1ccccc1)NC1CCCC1`?
Calb biofilm kill: 17

Results for O=C(NC(=S)Nc1ccccc1Cl)c1cncc(C#Cc2ccccc2)c1 ?
Calb biofilm kill: 11

How did CCN(CC)c1ccc(C2C3CCCCC3(O)CCN2C(=O)c2cccs2)cc1 (configuration not stated) do in these assays?
Calb biofilm kill: 14

Results for CNC(=S)N/N=C/c1cn(Cc2ccc(F)cc2)c2ccccc12 ?
Calb biofilm kill: 13

What do the screens show for `Cc1ccc(CN(C(=O)c2ccco2)C(C(=O)NC2CCCC2)c2cccnc2)cc1` (configuration not stated)?
Calb biofilm kill: 16

How did Cc1nc(C(C)N(C)Cc2nc(-c3ccc4c(c3)OCO4)no2)c(C)s1 (configuration not stated) do in these assays?
Calb biofilm kill: -22

Results for COCC(O)CSc1c([N+](=O)[O-])nc(C)n1Cc1ccc(OC)c([N+](=O)[O-])c1 (configuration not stated) ?
Calb biofilm kill: 11

How did O=C(COc1ccccc1C(=O)O)Nc1nc2ccc([N+](=O)[O-])cc2s1 do in these assays?
Calb biofilm kill: 20

Results for Cc1ccccc1NC(=O)Nc1ccccc1C(N)=O ?
Calb biofilm kill: 10

What do the screens show for `Cc1ccn2c(C=O)c(-c3ccc(F)cc3)c(C=O)c2c1`?
Calb biofilm kill: 12

Results for C#CC(C)(CC)NC(=O)Cn1nnc(-c2cccc(C(F)(F)F)c2)n1 (configuration not stated) ?
Calb biofilm kill: 6

What do the screens show for `CCC(CC)NC(=O)Cc1ccc(F)cc1`?
Calb biofilm kill: 11

What do the screens show for `COc1ccc(/C=C/C(=O)Nc2ccc3nc4n(c(=O)c3c2)CCCC4)cc1`?
Calb biofilm kill: 7

The final six records of the section above come first, to join the parts:
How did O=C(COc1ccccc1C(=O)O)Nc1nc2ccc([N+](=O)[O-])cc2s1 do in these assays?
Calb biofilm kill: 20

Results for Cc1ccccc1NC(=O)Nc1ccccc1C(N)=O ?
Calb biofilm kill: 10

What do the screens show for `Cc1ccn2c(C=O)c(-c3ccc(F)cc3)c(C=O)c2c1`?
Calb biofilm kill: 12

Results for C#CC(C)(CC)NC(=O)Cn1nnc(-c2cccc(C(F)(F)F)c2)n1 (configuration not stated) ?
Calb biofilm kill: 6

What do the screens show for `CCC(CC)NC(=O)Cc1ccc(F)cc1`?
Calb biofilm kill: 11

What do the screens show for `COc1ccc(/C=C/C(=O)Nc2ccc3nc4n(c(=O)c3c2)CCCC4)cc1`?
Calb biofilm kill: 7

Results for CCN(CC)c1ccc(C=C(c2nnnn2-c2ccc(C)cc2)c2nnnn2-c2ccc(C)cc2)cc1 ?
Calb biofilm kill: -1

Results for CCC(=O)N1CCC2(CC1)Oc1ccc(F)cc1C(=O)C21CC(c2ccccc2)=NO1 (configuration not stated) ?
Calb biofilm kill: 12

How did Cc1ccc(NC(=O)C(NC2CCCc3ccccc32)c2ccccc2)c([N+](=O)[O-])c1 (configuration not stated) do in these assays?
Calb biofilm kill: 15

What do the screens show for `CCc1cccc(CC)c1NC(=O)COC(=O)c1ccc(F)c(S(=O)(=O)N(CC)CC)c1`?
Calb biofilm kill: 11

Results for C/C(=N\NC(=O)c1ccccc1O)c1ccc(Br)s1 ?
Calb biofilm kill: 18

How did COC(=O)c1ccc(CSc2ccc3nnc(-c4ccc(F)cc4)n3n2)o1 do in these assays?
Calb biofilm kill: 23

Results for Cc1cccc(N(CC(=O)NC2CCCCC2)C(=O)Cn2nnc(-c3ccc(C)o3)n2)c1 ?
Calb biofilm kill: 10

How did O=C(CNC(=O)C(c1ccccc1)c1ccccc1)N/N=C/c1ccc(O)cc1O do in these assays?
Calb biofilm kill: 16

How did Cc1cc(N/C=C\c2nnnn2-c2ccccc2)no1 do in these assays?
Calb biofilm kill: 8

Results for CCCOc1ccc(N2C(=O)CC(NNC(=O)c3ccc(COc4ccccc4)o3)C2=O)cc1 (configuration not stated) ?
Calb biofilm kill: 12

Results for COc1ccccc1-c1cc2nc(C)c(CCC(=O)NCc3ccc(F)cc3)c(C)n2n1 ?
Calb biofilm kill: 5

Results for CC1(C)CC(=O)C(=CN2CCOCC2)C(=O)C1 ?
Calb biofilm kill: 13

Results for Cc1[nH]n2c(=O)c3c(nc2c1-c1ccc(F)cc1)CCCC3 ?
Calb biofilm kill: -1

How did COc1nc(OC)nc(N2CCCCCC2)n1 do in these assays?
Calb biofilm kill: 19

Results for COc1ccc(C(=O)N[C@H](C(=O)NCc2ccco2)C(C)C)cc1 ?
Calb biofilm kill: 9

How did CC(C)C(NS(=O)(=O)c1cccs1)C(=O)NCc1ccccc1Cl (configuration not stated) do in these assays?
Calb biofilm kill: 13

Results for Cc1ccc(NC(=O)CCC(=O)NNC(=O)COc2ccccc2)cc1C ?
Calb biofilm kill: 19

What do the screens show for `Cc1cc(NC2CCCCC2)n2c(n1)nc1ccccc12`?
Calb biofilm kill: 20

How did O=[N+]([O-])c1cccc(/C=C/C=N/Nc2nc(N3CCCCC3)nc(N3CCCCC3)n2)c1 do in these assays?
Calb biofilm kill: -11

What do the screens show for `Cc1ccc(NC2=C/C(=N\S(=O)(=O)c3cccs3)c3ccccc3C2=O)c(C)c1`?
Calb biofilm kill: 15

Random excerpt: 4 entries already listed, in no set order.
Results for CCN(CC)c1ccc(C=C(c2nnnn2-c2ccc(C)cc2)c2nnnn2-c2ccc(C)cc2)cc1 ?
Calb biofilm kill: -1

Results for Cc1cccc(N(CC(=O)NC2CCCCC2)C(=O)Cn2nnc(-c3ccc(C)o3)n2)c1 ?
Calb biofilm kill: 10

How did O=C(CNC(=O)C(c1ccccc1)c1ccccc1)N/N=C/c1ccc(O)cc1O do in these assays?
Calb biofilm kill: 16

How did O=[N+]([O-])c1cccc(/C=C/C=N/Nc2nc(N3CCCCC3)nc(N3CCCCC3)n2)c1 do in these assays?
Calb biofilm kill: -11

(more compounds)
Results for Cc1sc2nc(Cc3ccccc3)[nH]c(=O)c2c1-c1ccccc1 ?
Calb biofilm kill: 21

Results for Nc1sc(-c2ccccc2)cc1-c1n[nH]c(=S)n1C1CCCCC1 ?
Calb biofilm kill: 21

Results for COc1ccc(C2CC(c3ccccc3)=NN2C(=O)CSc2ncccn2)cc1 (configuration not stated) ?
Calb biofilm kill: 13

What do the screens show for `COc1ccc(/C(C)=N/Nc2ccc(C(=O)O)cc2)cc1OC`?
Calb biofilm kill: 19

Results for Cc1ccc(S(=O)(=O)N2CCN(C(=S)NCCc3ccccc3)CC2)cc1 ?
Calb biofilm kill: 8

What do the screens show for `CCOc1ccccc1NC(=O)Nc1cc(C(=O)O)ccc1C`?
Calb biofilm kill: 5

How did O=C(NCc1nnc(SCc2ccc(C(F)(F)F)cc2)n1-c1ccccc1)C12CC3CC(CC(C3)C1)C2 do in these assays?
Calb biofilm kill: 18

What do the screens show for `CCCN(Cc1ccccc1)C(=S)Nc1ccc(F)cc1`?
Calb biofilm kill: 5

How did COC(=O)[C@H](Cc1ccccc1)NC(=O)NCc1ccccc1 do in these assays?
Calb biofilm kill: 20

How did COc1cc(-c2nc3ccc4ccccc4c3c3c2CCC3)ccc1O do in these assays?
Calb biofilm kill: 11

What do the screens show for `COc1ccc(-c2nc(CN3CCCCC3CCc3ccccn3)c(C)o2)cc1` (configuration not stated)?
Calb biofilm kill: 17

Results for CC(C)(C)n1nc2c(c1NC(=O)c1cc3ccccc3o1)CSC2 ?
Calb biofilm kill: 8

Results for O=c1nc(-c2ccccc2)n(-c2ccc(Cl)cc2)[nH]1 ?
Calb biofilm kill: 4

What do the screens show for `Cn1cnc([N+](=O)[O-])c1SCC(=O)NN`?
Calb biofilm kill: 18

How did CCOc1ccc(-n2c(=S)sc3c(=O)[nH]c(SCC(=O)C(C)(C)C)nc32)cc1 do in these assays?
Calb biofilm kill: 17

Results for O=[N+]([O-])c1cccc(NC(=S)N2CCOCC2)c1 ?
Calb biofilm kill: 8

Screens as filed in PubChem.
